TRPML1 ag = human mucolipin-1 channel agonism; TRPML1-expressing cells, Ca2+ dye fluorescence, FDSS; host cell line not named in the record; reference of the full effect not given here; 410,000 tested, 0.12% active; Q9GZU1; activation, % (test concentration not listed); in the data active = activation above about 50%; inconclusive = about 30% to 50%; inactive = below about 30%; also: 0% is about no effect; the text of the record puts the active cut at 80%
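Agonist activity was taken from a 110 s kinetic Ca2+ dye read on the FDSS after pinning compounds onto TRPML1-DL cells. The cells were seeded at 1,500/well with Tet inducer, incubated about 16 h, then dye-loaded at room temperature.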
TRPML1 inh = blocks the human TRPML1 channel; Q9GZU1; TRPML1-inducible cells, Ca2+ dye fluorescence, FDSS; stronger effect = lower value; inhibition of EC80 agonist-evoked calcium signal; activity change, negative = inhibition, % (concentration not given with the values); 390,000 tested, 0.02% active; AID 624415; in the data active means activity change below about -50%; inconclusive means about -30% to -50%; inactive means above about -30%;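 also: stimulus is agonist 54-4 at its EC80 concentration; % is scaled to controls: 0 for no effect and ±100 for the full control effect; compound concentration not given in the record; the text of the record puts the active cut at -80%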
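Calcium fluorescence in TRPML1-DL cells induced overnight with Tet: a 110 s read after compound pin addition, then a 110 s antagonist read after challenge with 54-4 at 4 uM final (EC80).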
PINK1 modulator = PINK1 expression modulation. PINK1 immunofluorescence, high-content cytometry, 24 h. Potency, µM (highest dose often 76.6 µM), inactives show at the highest dose activation (PINK1 increase), actives largely listed as activators. 410,000 tested, 0.2% active. AID 624263; active = well fitted activation curve with a large enough effect; inconclusive = small, poorly fitted or top-dose-only effect; inactive = flat fitted curve, though single readings scatter; cell line not stated here;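 also: potency is read from the fitted curve at half-maximal effect; % of control where 0% means no effect; nearly all actives have a fitted effect of over 65% in size; a mitochondrial uncoupler was the plate control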
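PINK1 protein, normally rapidly degraded, was detected by immunofluorescence after 24 hour compound treatment of a stable cell line. Titration data (5 concentrations) came from laser-scanning cytometry, with CCCP-treated wells as controls.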
Six1-Eya2 inh = blocks human Six1 binding to Eya2. AlphaScreen GST-Six1/His-Eya2 binding, biochemical; stronger effect = lower value; control for the full effect not named in the record. activity change, % (concentration not given with the values). Q15475+O00167. 360,000 tested, 0.56% active; in the data active = activity change below about -65%; inconclusive = about -30% to -65%; inactive = above about -30%; also: % is scaled to controls: 0 for no effect and ±100 for the full control effect
Target sequence (O00167 whole entry, looked up): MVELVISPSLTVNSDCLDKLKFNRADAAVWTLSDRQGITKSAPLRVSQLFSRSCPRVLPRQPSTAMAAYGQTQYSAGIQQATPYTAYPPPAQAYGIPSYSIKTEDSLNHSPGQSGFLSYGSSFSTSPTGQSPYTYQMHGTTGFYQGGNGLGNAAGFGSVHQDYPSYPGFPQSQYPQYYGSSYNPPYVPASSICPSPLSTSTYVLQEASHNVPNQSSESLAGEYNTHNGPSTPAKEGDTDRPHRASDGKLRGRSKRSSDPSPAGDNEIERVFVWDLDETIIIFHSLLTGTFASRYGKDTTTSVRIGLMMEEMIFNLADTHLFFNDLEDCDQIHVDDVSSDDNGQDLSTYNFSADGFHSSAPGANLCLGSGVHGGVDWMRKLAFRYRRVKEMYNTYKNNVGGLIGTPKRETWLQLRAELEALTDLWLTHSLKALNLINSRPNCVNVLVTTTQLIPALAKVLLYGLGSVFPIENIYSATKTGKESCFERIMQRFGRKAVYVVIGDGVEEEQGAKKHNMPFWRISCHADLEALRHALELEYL
Target sequence (Q15475 whole entry, looked up): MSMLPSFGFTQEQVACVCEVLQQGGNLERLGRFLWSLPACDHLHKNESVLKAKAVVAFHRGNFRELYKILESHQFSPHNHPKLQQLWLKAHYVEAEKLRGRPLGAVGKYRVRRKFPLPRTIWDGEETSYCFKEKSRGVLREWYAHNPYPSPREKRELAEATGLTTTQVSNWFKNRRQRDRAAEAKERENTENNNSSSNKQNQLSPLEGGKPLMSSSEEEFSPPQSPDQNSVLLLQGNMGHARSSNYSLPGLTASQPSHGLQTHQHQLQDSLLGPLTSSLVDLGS
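Six1/Eya2 binding was read as AlphaScreen signal after compounds were pinned into GST-Six1 plus His-tagged Eya2 (5X stock 250/500 nM) in pH 8.0 Tris/NaCl/TCEP buffer, beads added, then incubated 1 h, 37 C, dark.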
D2 agonist = agonists of human D2 dopamine receptor (beta-arrestin). activation, % (no concentration beside the values). DiscoveRx PathHunter D2 beta-arrestin, luminescence, 90 min; 100% = 57 uM dopamine signal. 360,000 tested, 0.084% active. AID 624465; in the data active = activation above about 40%; inconclusive = about 15% to 40%; inactive = below about 15%; also: compound concentration not given in the record; the text of the record calls up to 30% inactive
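Agonist mode: compounds alone added to overnight-plated D2 PathHunter cells for 90 min at 37 C, with 57 uM final dopamine (EC100) defining full response. Beta-arrestin recruitment detected by chemiluminescent reagent, read after 1 h at ambient temperature.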
D2 PAM = human D2 receptor positive allosteric modulation | P14416 | DiscoveRx D2 beta-arrestin cells, luminescence, 90 min; 100% = 57 uM dopamine signal | potentiation, % (concentration not given with the values) | 360,000 tested, 0.23% active; active = potentiation of 50% or more; inconclusive = 30% to 50%; inactive = 30% or less;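 also: compound concentration not given in the record; tested on top of an EC20 dose of dopamine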
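PathHunter beta-arrestin assay in DiscoveRx D2 cells. Compounds were added with an EC20 of dopamine (50 nM final) for 90 min at 37 deg C. Luminescence was read 1 h after detection reagent, with 57 uM dopamine as the EC100 control.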
Starred values were filed as active, the others as inactive; u = inconclusive; x = no result given; & = joins results of further samples; [ ] = dose if it differs, or a comment.

SMILES	TRPML1 ag	TRPML1 inh	PINK1 modulator	Six1-Eya2 inh	D2 agonist	D2 PAM
COc1cc(SC)ccc1C(=O)NCCc1ccccc1	2.9	13	24%	-4	-0.7	6
NCCCC[C@H]1CN=C(N)N1CCc1cccc2ccccc12	0.2	13	-0.5%	19	-3.8	-10
CC(C)CC(NC(N)=O)C(=O)Nc1ccc2c(c1)OCO2 (stereo unspecified)	1.6	-7	-1.4%	-10	2.9	2
Cc1cc(C)nc(NS(=O)(=O)c2ccc(NC(=O)CCCN3C(=O)c4ccccc4C3=O)cc2)n1	0.6	-9	x	-1	-1.9	0
CC(C)(C)c1ccc(/C=C2\Oc3cc(O)ccc3C2=O)cc1	7.0	-22	u	2	7.6	-11
O=C(NCC(c1ccco1)N1CCc2ccccc2C1)c1cccc(F)c1 (stereo unspecified)	0.4	-10	0.2%	1	-3.7	-7
CCn1c(C)nc2cc(C(=O)NN=Cc3ccccc3OC(F)F)ccc21	0.1	-17	3.4%	-9	2.2	5
COc1ccc(F)cc1CN1CCN(CC(=O)N2CCc3ccccc32)CC1	-0.2	-21	0.8%	-11	-2.7	-19
Cc1ccc(Nc2ccccc2)nn1	-0.2	19	3.4%	-9	0.7	-6
COc1ccc(C(=O)CSc2ccccc2C(=O)O)cc1	0.3	17	-1.3%	-3	-4.7	-4
C/C(=N\NC(=O)c1cc(C)[nH]n1)C(C)(C)C	-0.1	3	2.1%	-2	0.1	-4
O=C(Nc1ccc2nccnc2c1)Nc1ccccc1Cl	-0.3	14	5.6%	-14	-2.5	-7
CC1(C)C(c2cccs2)=NC(c2ccccc2)N1O (stereo unspecified)	2.0	0	2.3%[38.3 µM]	-1	-4.3	-11
COc1ccc(CNCC(O)(c2ccc(Cl)cc2)c2ccc(Cl)cc2)cc1	0.3	5	19%	5	1.3	-23
COc1ccc(C2=NN(CCC(=O)NCc3cccs3)C(=O)CC2)cc1	-0.5	0	0.2%	4	-1.1	-6
CCOc1ccc(OCCOC(=O)C2CCN(S(=O)(=O)c3ccc(C)c(C)c3)CC2)cc1	5.0	0	1.7%	-1	-0.4	-2
O=[N+]([O-])c1ccc(Cl)c(S(=O)(=O)Nc2cccc(S(=O)(=O)NC3=NCCC3)c2)c1	-0.7	4	1.0%	-2	10	28
CCOC(=O)N1CCN(C(=O)C2CCCN(Cc3nc(-c4ccc(Cl)cc4)oc3C)C2)CC1 (stereo unspecified)	0.8	-7	1.1%	10	-1.2	-3
COc1ccc(Nc2nc3ccccc3n3c(N)nnc23)cc1	1.1	5	0.7%	x	x	x
COc1cc(C(C)=O)ccc1OCC(=O)NCCCn1nc(C)cc1C	0.3	-6	0.1%	17	9.7	-5
c1cc2c(cc1-c1[nH]ncc1CN1C[C@H]3CC[C@H]1C3)OCO2	0.1	3	3.5%	1	-5.1	2
Cn1ccc(/C=N/N=C2/NC(=O)CS2)n1	0.8	-9	-0.4%	1	5.6	-6
N#C/C(=C/c1ccc([N+](=O)[O-])cc1)C(=O)Nc1ccccc1O	0.7	-6	6.5%	0	3.6	15
Cc1cc(NC(=O)OC(C)C)ccc1-c1ccc(NC(=O)OC(C)C)cc1C	0.2	2	0.9%	-1	4.1	7
O=c1c(=O)n(-c2ccccc2)ccn1Cc1c(F)cccc1Cl	0.5	-14	-0.1%	x	x	x
O=C(CNC(=O)c1cccc(F)c1)N/N=C/c1cccc([N+](=O)[O-])c1	1.1	-15	3.5%	13	-0.4	-12
CCCn1c(SCC(=O)N2CCCCC2)nc2c1c(=O)n(C)c(=O)n2C	0.6	25	1.7%	2	-2.1	7
C=CCONC(=O)Cc1ccccc1	0.7	-7	-1.8%	6	1.7	-1
C=CCNC(=O)C12CCC(C)(C(=O)[C@H]1Br)C2(C)C (stereo partly specified)	0.1	2	0.1%	6	-1.0	-12
CSc1cc(-c2ccc(Cl)cc2)[nH]c(=O)c1C#N	1.3	-12	1.3%	4	2.4	-13
CCOc1ccc(NC2OC(C)C(O)C(O)C2O)c([N+](=O)[O-])c1 (stereo unspecified)	0.5	0	1.9%	9	2.7	-4
Cc1ccc(S(=O)(=O)c2nc(-c3ccco3)oc2SC(C)c2ccccc2)cc1 (stereo unspecified)	2.8	12	-0.5%	x	x	x
Cc1ccc2c(c1)nc(NCCCO)n2C	-1.0	3	2.9%	14	-1.7	-4
CCOC(=O)C1CCCN(C2=NC(=O)/C(=C/c3ccc(O)c(OC)c3)S2)C1 (stereo unspecified)	1.6	-19	-1.3%	-3	0.7	-7
COc1ccc(NC(=O)C(c2ccc(OC)cc2)N(Cc2ccco2)C(=O)CC2NC(=O)NC2=O)cc1 (stereo unspecified)	-0.4	-8	-0.7%	-4	-0.7	4
CCOC(=O)c1c(C)[nH]c(C)c1S(=O)(=O)N1CCCC(C(=O)NCc2ccccc2Cl)C1 (stereo unspecified)	-1.4	0	0.0%	x	x	x
O=C(COc1ccc2ccccc2c1)NNC(=O)Cc1cccc2ccccc12	-0.7	18	9.1%	-2	0.0	-9
O=C(COc1ccc2c(-c3ccccc3)cc(=O)oc2c1)NCC(O)c1ccccc1 (stereo unspecified)	x	x	0.3%	8	12	15
COc1ccc(CNC(=O)CCNS(=O)(=O)c2ccc3c(c2)oc(=O)n3C)cc1	0.8&-0.4	10&-5	-1.8%&1.9%	5	-8.7	-9
CC(=O)Nc1ccc(N(C(=O)c2ccco2)C(C(=O)NC2CCCC2)c2ccc(N3CCOCC3)cc2)cc1 (stereo unspecified)	0.5	-5	0.9%	3	-2.3	1
CCOc1ccc2c(c1)ncn2Cc1ccccc1	0.5	9	-0.6%	2	-0.6	-6
CC1CCC2C(=O)N(c3ccc(S(=O)(=O)c4ccccc4)cc3)C(=O)C2C1 (stereo unspecified)	0.5	4	3.8%	1	4.1	11
CN1CCC(=C2c3ccccc3Sc3ccccc32)CC1	0.3	20	-0.5%	-2	-3.8	-25
COc1ccc(/C=C(/C(=O)N2CCCCC2C(=O)O)c2ccc(OC)c(OC)c2)cc1 (stereo unspecified)	-0.7	1	0.9%	-1	-1.5	-8
Cc1ccc(-c2noc(CNS(=O)(=O)c3ccccc3)n2)cc1	0.0	-11	3.0%	3	0.3	17
COc1ccccc1-c1c(C(F)(F)F)oc2cc(OS(C)(=O)=O)ccc2c1=O	2.3	7	4.2%	2	-5.8	2
COc1cc(N(CCCn2cnc3c(SC)ncnc32)CCCn2cnc3c(SC)ncnc32)cc(OC)c1OC	x	x	0.8%	-3	-1.5	x
CC(=O)c1ccc(N(CC(=O)NCc2ccc3c(c2)OCO3)C(=O)c2csnn2)cc1	-0.2	-5	-0.4%	-3	-4.6	3
Cc1noc(C)c1NC(=O)N(C)C[C@H]1Oc2ccc(NC(=O)NC3CCCCC3)cc2C(=O)N([C@H](C)CO)C[C@@H]1C	-0.9	25	2.4%	1	-0.9	-7
CCCN(C(=O)COC(=O)CSc1ccc([N+](=O)[O-])cc1)C1CCS(=O)(=O)C1 (stereo unspecified)	-0.2	-8	1.6%	-1	-1.0	-3
More results
SMILES	TRPML1 ag	TRPML1 inh	PINK1 modulator	Six1-Eya2 inh	D2 agonist	D2 PAM
O=C(CN(c1cccc(Cl)c1)S(=O)(=O)c1ccc(Cl)cc1)NCc1ccccn1	2.0	-11	2.5%	-9	-2.4	-7
O=C(O/N=C1\CCS(=O)(=O)c2sccc21)c1c(F)cccc1F	0.0	-4	-0.4%	-1	0.2	-12
Cc1cc(C)c2c(-n3cccc3)c(C(=O)NCCc3ccc(Cl)cc3)sc2n1	1.8	36	0.7%	x	x	x
Cc1ccc(C)c(N2CCN(C(=O)c3cc4c(=O)n(Cc5cccs5)ccc4nc3C)CC2)c1	0.8	14	-0.9%	x	x	x
O=C(O)CCCC(=O)Nc1cc([N+](=O)[O-])ccc1O	0.1	-20	-0.6%	2	-7.0	-16
CC(=O)c1c(COC(=O)c2cccc(C)c2)nc2ccccc2[n+]1[O-]	1.6	15	0.4%	-4	13	4
O=C(CN(C(=O)CCC(=O)Nc1ccccn1)c1cccc(F)c1)NCc1ccc(F)cc1	-0.4	29	2.0%	5	-8.4	-12
CCOC(=O)c1ccc(N(CC2CO2)S(=O)(=O)c2ccc(C)cc2)cc1 (stereo unspecified)	-0.2	10	0.8%	-1	-2.6	-5
COc1ccc(/C=C/C(=O)OCC(=O)N2CC(=O)Nc3ccccc32)cc1	-0.2	-17	1.3%	-7	-1.2	-2
C=CCSc1nnc(-c2ccc(Cl)cc2Cl)o1	0.6	5	3.9%[38.3 µM]	21	-4.0	-10

Looked up one by one from the list above, 5 records:
SMILES	TRPML1 ag	TRPML1 inh	PINK1 modulator	Six1-Eya2 inh	D2 agonist	D2 PAM
CCOC(=O)c1ccc(N(CC2CO2)S(=O)(=O)c2ccc(C)cc2)cc1 (stereo unspecified)	-0.2	10	0.8%	-1	-2.6	-5
O=C(O)CCCC(=O)Nc1cc([N+](=O)[O-])ccc1O	0.1	-20	-0.6%	2	-7.0	-16
Cc1cc(C)c2c(-n3cccc3)c(C(=O)NCCc3ccc(Cl)cc3)sc2n1	1.8	36	0.7%	x	x	x
Cc1ccc(C)c(N2CCN(C(=O)c3cc4c(=O)n(Cc5cccs5)ccc4nc3C)CC2)c1	0.8	14	-0.9%	x	x	x
COc1ccc(/C=C/C(=O)OCC(=O)N2CC(=O)Nc3ccccc32)cc1	-0.2	-17	1.3%	-7	-1.2	-2

Additional structures.
SMILES	TRPML1 ag	TRPML1 inh	PINK1 modulator	Six1-Eya2 inh	D2 agonist	D2 PAM
COc1ccc(/C=N/NC(=O)Cn2cnc3c2c(=O)n(C)c(=O)n3C)cc1	0.9	3	1.3%	2	-0.8	-4
CC(=O)c1ccc(NC(=O)/C(=C\c2ccccc2)NC(=O)c2ccco2)cc1	-0.9	-15	1.9%	11	-3.3	-3
O=[N+]([O-])c1ccc(CSc2ccc(S(=O)(=O)N3CCCCCC3)cn2)cc1	0.8	35	-2.9%	-10	1.4	6
CCN(CC)c1ccc(NC(=O)c2ccc(=O)[nH]c2)cc1S(=O)(=O)Nc1ccc(OC)cc1	-0.4	58	6.4%	-25	-7.4	-23
NS(=O)(=O)c1ccc(CCNC(=O)c2cnccn2)cc1	-0.3	2	-0.2%	-1	-2.4	-5
COc1cc(NC(=O)Cn2ncc3c2-c2ccccc2OC3)cc(OC)c1OC	0.5	-6	2.8%	-1	2.3	-2
Cc1cc2nc(SCCOC(=O)Nc3cccc(Cl)c3)nc(C)c2cc1C	-0.8	-11	1.1%	13	-5.2	1
COc1cc2c(cc1OC)CN(Cc1ccc(F)cc1)CC2	0.1	6	-0.7%	16	-3.1	-7
NC(=O)C1CCN(CC(=O)NCc2ccccc2)CC1	2.9	0	-2.6%	1	-2.5	-13
O=C(CCNC(=O)c1ccccc1Cl)NN=Cc1ccccc1[N+](=O)[O-]	0.2	-1	0.4%	-4	-4.1	-29
CCC(=O)N1CCc2cc(S(=O)(=O)CCC(=O)Nc3c(C)n(C)n(-c4ccccc4)c3=O)ccc21	-0.7	-4	-0.1%	6	-1.1	-1
CCCc1cc(=O)c2ccc(OC/C(C)=N/O)cc2o1	0.1	6	0.5%	2	-5.2	-13
CCCc1cnc(N2CCN(C(=O)c3ccc(OC)cc3)CC2)nc1	3.1	28	0.1%	4	1.2	-3

Bioassay records (PubChem)
